PrP UTR inh: inhibition of PrP 5' UTR reporter expression; cell-based PrP 5' UTR mRNA reporter, plate reader; inhibition, % (no concentration beside the values); 0.35% of 340,000 active;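 active = every replicate at 50% or more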;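 also: 0 = median of the neutral control wells; tested in H4 reporter cells; numbers are from one replicate; inactives centre near -14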
Autofluor counter: compound fluorescence in toxin protease inhibitor counterscreen; AID 624483; 3.1% of 360,000 active; compound autofluorescence counterscreen, microsphere flow cytometry; stronger effect = higher value; fluorescence intensity (test concentration not listed);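 active = at least 3 SD above the mean of all compounds, about 16000 in these data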;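 also: 100 nL of 1 mM stock went into each well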
* hit, by the source's call. This is a subset; count on the stated rates, not on these rows.

Screening S=C1NC[C@H](Cc2ccccc2)N1CC1CCN(CCCC2CCCC2)CC1 returned PrP UTR inh -2 and Autofluor counter 3787.
Cc1ccccc1S(=O)(=O)N1C[C@H]2CON(C)[C@H]2C[C@H]1c1cccc(Br)c1 was read as PrP UTR inh -27 and Autofluor counter 3461.
Screening COc1ccc(S(=O)(=O)Nc2cccc3c2O[C@H](CN(C)C(=O)Nc2ccc(C(F)(F)F)cc2)[C@@H](C)CN([C@H](C)CO)C3=O)cc1 returned PrP UTR inh -24 and Autofluor counter 3578.
`CCOC(=O)[C@@H]1[C@H]2COc3ccc(Br)cc3[C@@H]2N2C(=O)N(c3ccc(OC)cc3)C(=O)[C@@]12C` gave PrP UTR inh -16 and Autofluor counter 4092.
`Cc1cc(C(=O)Cn2cnc3ccc(Cl)cc3c2=O)c(C)n1C1CC1` gave PrP UTR inh -5 and Autofluor counter 3059.
COc1ccc2[nH]cc(CCNC(=O)Cn3cc(C)c(=O)[nH]c3=O)c2c1 was read as PrP UTR inh -9 and Autofluor counter 3907.
`COc1ccc2nc(C)cc(N/N=C/c3ccccc3)c2c1` gave PrP UTR inh -10 and Autofluor counter 3764.
O=S(=O)(c1cc(Cl)cc(Cl)c1)N1CCC2CC1c1cc(Cl)ccc12 (stereo unspecified) was read as PrP UTR inh -2 and Autofluor counter 3779.
For CCN(CC)C1Oc2cc3c(cc2C(c2cccc(OC)c2O)C1C)OCO3 (stereo unspecified) the results were PrP UTR inh -21 and Autofluor counter 3024.
For CCOC(=O)[C@H]1[C@H]2COc3cc(OC)ccc3[C@@H]2N2C(=O)c3ccc(F)cc3NC(=O)[C@@]12C the results were PrP UTR inh 1 and Autofluor counter 3908.
For C=C(CN(C)C)C(=O)c1ccc(OC2OC(COC(C)=O)C(OC(C)=O)C(OC(C)=O)C2OC(C)=O)cc1 (stereo unspecified) the results were PrP UTR inh -23 and Autofluor counter 2899.
COc1ccc2c(c1)[C@H]1[C@H](CO2)[C@H](c2ccccc2)[C@]2(C)C(=O)Nc3cc(F)c(F)cc3C(=O)N12 was read as PrP UTR inh -52 and Autofluor counter 3790.
Screening C=CC[C@@H](CC(=O)N[C@H](CO)Cc1ccccc1)C(=O)N[C@@H](COC(=O)[C@@H](CC=C)Cc1ccc(F)cc1)Cc1c[nH]c2ccccc12 returned PrP UTR inh -7 and Autofluor counter 4164.
`O=C(Nc1ccccc1Cl)c1ccc(C(=O)Nc2ccccc2Cl)cc1` gave PrP UTR inh 76* and Autofluor counter 2986.
For O=C(/C=C/c1ccccc1)CCN1CCOCC1 the results were PrP UTR inh -4 and Autofluor counter 3757.
For C[C@H]1COC(=O)[C@@H](Cc2ccc(F)cc2)C/C=C\C[C@H](CC(=O)N(CCO)Cc2ccccc2)C(=O)N1 the results were PrP UTR inh -14 and Autofluor counter 2889.
`CCOC(=O)C1=NNC(C(=O)OCC)C1c1ccccc1` (stereo unspecified) gave PrP UTR inh -12 and Autofluor counter 2881.
C[C@]12C=CC(=O)C=C1CC[C@@H]1[C@@H]2CC[C@]2(C)C(=O)CC[C@@H]12 was read as PrP UTR inh -20 and Autofluor counter 4270.
`COc1cccc(C2=CC(=O)C[C@H](c3ccc(OC)c(OC)c3)C2)c1` gave PrP UTR inh 6 and Autofluor counter 3966.
For COc1ccc(C(=O)N(c2ccccc2)c2nccc3ccccc23)cc1OC the results were PrP UTR inh -8 and Autofluor counter 2910.
For COc1ccc(OC)c(C2=CC(=O)C[C@H](c3ccc4c(c3)OCO4)C2)c1 the results were PrP UTR inh -33 and Autofluor counter 4103.
Cc1cc(O)cc2c1O[C@@](C)(CCC[C@@H](C)CCC[C@@H](C)CCCC(C)C)CC2 was read as PrP UTR inh -12 and Autofluor counter 5391.
`COC(=O)C1=C(c2ccc(F)cc2F)C[C@@H]2CC[C@H]1N2C(=O)N1CCOCC1` gave PrP UTR inh -19 and Autofluor counter 2935.
COc1ccccc1C1=CC(=O)C[C@H](c2ccc(Cl)cc2)C1 was read as PrP UTR inh 16 and Autofluor counter 2974.
`COc1ccc2sc(-c3ccc(S(C)(=O)=O)cc3)c(C#CCO)c2c1` gave PrP UTR inh -8 and Autofluor counter 2917.
For CC(=O)N1c2ccccc2C2CCCC[C@@H]21 (stereo partly specified) the results were PrP UTR inh -27 and Autofluor counter 3597.
For COc1ccc([C@H]2CC(=O)C=C(c3ccc(O)cc3)C2)cc1OC the results were PrP UTR inh 6 and Autofluor counter 3431.
For Cc1ccc2c(c1)[C@@H]1[C@H](CO2)[C@H](c2ccccc2)[C@@]2(C)C(=O)N[C@H](C)C(=O)N12 the results were PrP UTR inh -21 and Autofluor counter 3573.
Screening Cc1ccc(C)c(NS(=O)(=O)c2ccccc2C)c1 returned PrP UTR inh -10 and Autofluor counter 5817.
Screening O=C(COC(=O)CCS(=O)(=O)c1ccccc1)Nc1ccccc1 returned PrP UTR inh -13 and Autofluor counter 3844.
C[C@H]1CN([C@@H](C)CO)C(=O)Cc2cc(NC(=O)Nc3ccccc3)ccc2O[C@H]1CN(C)Cc1ccccc1 was read as PrP UTR inh -1 and Autofluor counter 3052.
COC(=O)C1=C(c2cccc(C#N)c2)C[C@@H]2CC[C@H]1N2C(=O)N1CCCC1 was read as PrP UTR inh -5 and Autofluor counter 3730.
`COc1ccc(N=Cc2ccc(N(CCC#N)CCC#N)cc2)cc1` gave PrP UTR inh -18 and Autofluor counter 4960.
Screening Cc1cc(-c2ccccc2)nc(N/N=C/c2ccc(O)cc2)n1 returned PrP UTR inh -23 and Autofluor counter 6651.
For CON=C1C=C(C)C(=O)C(C)=C1C the results were PrP UTR inh -5 and Autofluor counter 3730.
Cn1nnnc1Sc1ncnc2scc(-c3ccccc3C(F)(F)F)c12 was read as PrP UTR inh -24 and Autofluor counter 3511.
COC(=O)c1ccc(C(=O)OC)c(NC(=O)C2CC(=O)N(C3CCCC3)C2)c1 (stereo unspecified) was read as PrP UTR inh -15 and Autofluor counter 3801.
O=C(/C(=N/O)c1ccccc1)c1ccccc1 was read as PrP UTR inh -19 and Autofluor counter 5296.
`Cc1cc(NC2=CC(=O)C(=O)c3ccccc32)no1` gave PrP UTR inh 77* and Autofluor counter 3071.
O=C(O)c1ccc([N+](=O)[O-])cc1Sc1ccsc1 was read as PrP UTR inh -7 and Autofluor counter 4477.
Screening O=C1[C@H](Cc2ccccc2)NCC=CC[C@@H](c2ccc(Cl)cc2)N1Cc1ccc(Cl)cc1 returned PrP UTR inh -30 and Autofluor counter 4044.
`C[C@@]12C(=O)Nc3ccccc3C(=O)N1[C@H]1c3cc(Cl)ccc3OC[C@@H]1[C@@H]2c1ccccc1` gave PrP UTR inh 11 and Autofluor counter 3917.
`CCOC(=O)[C@H]1[C@H]2COc3ccccc3[C@@H]2N2C(=O)c3cc(C)ccc3NC(=O)[C@@]12C` gave PrP UTR inh -29 and Autofluor counter 2936.
`C#CCOCCOCCOCCNc1nc(N2CCN(C(=O)CCCCCCCCCCNC(=O)[C@@H](CCSC)n3cc(CCO)nn3)CC2)nc(N2CCN(C(=O)CCCCCCCCCCNC(=O)[C@H](CO)n3cc(CCCCCN)nn3)CC2)n1` gave PrP UTR inh -19 and Autofluor counter 4319.
`CCOC(=O)c1cccc(-n2cccc2/C=C2\NC(=O)N(CC(=O)O)C2=O)c1` gave PrP UTR inh -10 and Autofluor counter 3699.
`CC(C)(C)OC(=O)N1CCCC(C(=O)Nc2cccc(C(=O)NC3CC3)c2)C1` (stereo unspecified) gave PrP UTR inh -16 and Autofluor counter 4096.
Cc1noc(C)c1NC(=O)N(C)C[C@H]1Oc2c(cccc2N(C)C)C(=O)N([C@H](C)CO)C[C@@H]1C was read as PrP UTR inh 1 and Autofluor counter 3033.
Screening COc1cc(/C=N/Nc2cccc(C)c2)ccc1OC(=O)c1cccs1 returned PrP UTR inh -23 and Autofluor counter 2063.
Cc1ccsc1/C=N/Nc1cccc(C(=O)O)c1 was read as PrP UTR inh 72* and Autofluor counter 4153.
O=C1NC[C@@H](c2ccccc2)OC(=O)[C@H](Cc2ccc(F)cc2)C/C=C\C[C@H]1CC(=O)N(CCO)Cc1ccccc1 was read as PrP UTR inh -11 and Autofluor counter 3877.
Cc1ccc(S(=O)(=O)Nc2ccccc2/C=N/c2nc3ccccc3n2C)cc1 was read as PrP UTR inh -15 and Autofluor counter 2653.
Cc1ccc(C2(c3ccc(C)cc3)NC(=O)N(CC(=O)NCCCN3CCCC3=O)C2=O)cc1 was read as PrP UTR inh 2 and Autofluor counter 4161.
`C/C(=N\Nc1ccc(S(=O)(=O)N2CCCCC2)cn1)c1cccc(Br)c1` gave PrP UTR inh 2 and Autofluor counter 3789.
Screening CC1OC(OC2C(CO)OC(OCC3OC(OC(=O)[C@@]45CCC(C)(C)C[C@@H]4C4=CC[C@@H]6[C@@]7(C)CCC(OC8OCC(O)C(O)C8OC8OC(C)C(O)C(O)C8O)[C@@](C)(CO)C7CC[C@@]6(C)[C@]4(C)CC5)C(O)C(O)C3O)C(O)C2O)C(O)C(O)C1O (stereo partly specified) returned PrP UTR inh -27 and Autofluor counter 5351.
`CCc1ccc([C@@H]2CC=C(C(=O)O)CN2S(=O)(=O)c2ccc(C)cc2)cc1` gave PrP UTR inh -8 and Autofluor counter 3756.
Screening CN(Cc1cnc2nc(N)nc(N)c2n1)c1ccc(C(=O)NC(CCC(=O)O)C(=O)O)cc1C(F)(F)F (stereo unspecified) returned PrP UTR inh -1 and Autofluor counter 2988.
O=c1ccn(C2CCCO2)c(=O)[nH]1 (stereo unspecified) was read as PrP UTR inh -25 and Autofluor counter 3851.
For Cc1ccc(/C=N/NC(=O)c2cc3c(s2)CCCC3)o1 the results were PrP UTR inh -24 and Autofluor counter 3165.
For C=CC[C@@H](Cc1ccc(F)cc1)C(=O)OC[C@@H]1CCCN1C(=O)[C@H](CC=C)CC(=O)NCCO the results were PrP UTR inh -9 and Autofluor counter 3850.
For CC(C)(C)OC(=O)N(CCc1ccccc1)Cc1cccc(OCc2cccc(NC(=O)C3CC3)c2)c1 the results were PrP UTR inh -9 and Autofluor counter 3869.

By substructure, the compounds so far containing a tert-butyl group.
`CC(C)(C)OC(=O)N1CCCC(C(=O)Nc2cccc(C(=O)NC3CC3)c2)C1` (stereo unspecified) gave PrP UTR inh -16 and Autofluor counter 4096.
For CC(C)(C)OC(=O)N(CCc1ccccc1)Cc1cccc(OCc2cccc(NC(=O)C3CC3)c2)c1 the results were PrP UTR inh -9 and Autofluor counter 3869.

3 entries already listed, sorted by length of the SMILES, descending.
`CCOC(=O)[C@@H]1[C@H]2COc3ccc(Br)cc3[C@@H]2N2C(=O)N(c3ccc(OC)cc3)C(=O)[C@@]12C` gave PrP UTR inh -16 and Autofluor counter 4092.
Screening O=C1[C@H](Cc2ccccc2)NCC=CC[C@@H](c2ccc(Cl)cc2)N1Cc1ccc(Cl)cc1 returned PrP UTR inh -30 and Autofluor counter 4044.
For CON=C1C=C(C)C(=O)C(C)=C1C the results were PrP UTR inh -5 and Autofluor counter 3730.

Next entries:
Screening O=c1c2ccccc2sc2c(CO)ccc(NCCN3CCCCC3)c12 returned PrP UTR inh -30 and Autofluor counter 3216.
Screening CC1c2ccccc2-n2nncc2CN1C (stereo unspecified) returned PrP UTR inh -24 and Autofluor counter 3710.
For C[C@H](CO)N1C[C@H](C)[C@@H](CN(C)S(=O)(=O)c2ccc(F)cc2)Oc2ccc(NC(=O)C3CCCCC3)cc2C1=O the results were PrP UTR inh -5 and Autofluor counter 3782.
COc1cc(CCNC2=CC(=O)c3ncccc3C2=O)ccc1O was read as PrP UTR inh -10 and Autofluor counter 3136.
CCCS(=O)(=O)Nc1ccc(Nc2c3ccccc3nc3ccccc23)c(OC)c1 was read as PrP UTR inh -1 and Autofluor counter 3677.
CC(C)(C)[C@@H]1COC(=O)[C@H](Cc2ccc(F)cc2)CC/C=C\C[C@H](CC(=O)N(CCO)Cc2ccccc2)C(=O)N1 was read as PrP UTR inh -13 and Autofluor counter 3726.
`O=C1CSCc2nc3ccccc3n21` gave PrP UTR inh -11 and Autofluor counter 3651.
For Cc1ccc(C(=O)N2[C@@H]3CN(C)C(=O)[C@@]2(C)[C@H]2C(=O)N(C)C(=O)[C@@H]32)cc1 the results were PrP UTR inh -26 and Autofluor counter 3709.
Screening Cc1cc2c(=O)n(C)c(SCC(=O)Nc3ccc(F)cc3)nc2s1 returned PrP UTR inh -5 and Autofluor counter 4104.
`N#CCCn1cc(/C=N/O)c(-c2ccccc2)n1` gave PrP UTR inh -25 and Autofluor counter 16061.
`CN1C[C@H]2CON(C)[C@H]2C[C@H]1c1cccc(-c2ccccc2)c1` gave PrP UTR inh -19 and Autofluor counter 3683.
Cc1ccccc1-c1ccc2n1Cc1cnnn1-c1ccccc1-2 was read as PrP UTR inh -13 and Autofluor counter 3773.

Compounds listed so far that contain bromine, in the order listed:
Cc1ccccc1S(=O)(=O)N1C[C@H]2CON(C)[C@H]2C[C@H]1c1cccc(Br)c1 was read as PrP UTR inh -27 and Autofluor counter 3461.
`CCOC(=O)[C@@H]1[C@H]2COc3ccc(Br)cc3[C@@H]2N2C(=O)N(c3ccc(OC)cc3)C(=O)[C@@]12C` gave PrP UTR inh -16 and Autofluor counter 4092.
`C/C(=N\Nc1ccc(S(=O)(=O)N2CCCCC2)cn1)c1cccc(Br)c1` gave PrP UTR inh 2 and Autofluor counter 3789.

Further entries follow.
`C/C(=N\Nc1cc(-c2ccccc2)nc(-c2ccc(Br)cc2)n1)c1cccc(N)c1` gave PrP UTR inh -13 and Autofluor counter 17624*.
For C[C@H](CO)N1C[C@H](C)[C@@H](CN(C)C(=O)Nc2ccccc2)Oc2ccc(NS(=O)(=O)c3ccccc3)cc2C1=O the results were PrP UTR inh -20 and Autofluor counter 3933.
Screening F[B-](F)(F)COc1ccccc1 returned PrP UTR inh -7 and Autofluor counter 3003.
`CCc1ccc(CNCCNC(=O)c2ccco2)cc1` gave PrP UTR inh -32 and Autofluor counter 4216.
